Choline anaer gr – growth inhibitors of anaerobic choline-fed gram-negatives, minimal medium, absorbance; Gram-negative bacterium anaerobic choline minimal medium; active compounds read low; many inactives read as strong as hits in the columns shown; calls only; actives 0.2% (n = 55,000); AID 1963822, 2024;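 active means growth z-score on choline under -2 at 7 or 20 h with little or no fall on glycerol, limits in tiers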;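 further: stock transfer was 300 nL into about 50 µL; the organism is E. coli; final concentration not given here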
Choline anaer gr early – recorded beside Choline anaer gr, whose call it bears; z-score; measured here: choline growth z-score, timepoint 1;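 score of optical density at 7 h as mean of two plates; lower means less growth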
* hit, by the source's call; i = inactive; & = joins results of further samples. This is a subset, so the mix of outcomes need not match the whole.

| SMILES | Choline anaer gr | Choline anaer gr early |
| --- | --- | --- |
| Cc1cc(C)c(NC(=O)C(C)n2nc(-c3ccc(C)c(C)c3)ccc2=O)c(C)c1 (stereo not given) | i | -0.15 |
| CC(C)c1cc(C2CCCN2Cc2cn[nH]c2-c2ccc(F)cc2)no1 (stereo not given) | i | 1.4 |
| Cc1cccc(NC(c2ccccc2F)c2c(NC(=O)c3ccccc3)sc(C)c2C)n1 (stereo not given) | i | 1.2 |
| O=C(CC1=NS(=O)(=O)c2ccccc2N1)NCc1ccc(F)cc1 | i | -0.76 |
| CCc1onc(C)c1C1CCCN1Cc1cn[nH]c1-c1ccc(OC)c(OC)c1 (stereo not given) | i | -0.35 |
| CCCS(=O)(=O)c1nc2ccc(NS(=O)(=O)c3cccc(F)c3)cc2s1 | i | -0.21 |
| Cc1ccc2c(c1)N(CC(=O)NCC1CCCO1)C(=O)CO2 (stereo not given) | i | -0.61 |
| CCc1nnc2c3ccccc3nc(NC3CCN(Cc4ccccc4)CC3)n12 | i | -1.7 |
| CCC(C)NC(=O)c1cc2sccc2n1C (stereo not given) | i | -0.16 |
| Cc1ccn2c(=O)c(Cc3nnc(SCC(=O)Nc4nnc(C)s4)n3C)c(C)nc2c1 | i | -1.6 |
| Cn1c(SCc2nc(-c3ccccc3)no2)nc2cc(-c3ccccc3)sc2c1=O | i | 0.32 |
| CCOc1ccccc1C1Nc2ccc(CC)cc2[C@H]2OCCC[C@@H]12 (stereo not given in full) | i | 0.55 |
| Cc1cc(=O)[nH]c(SCc2nc(-c3ccc(OC(C)C)cc3)oc2C)n1 | i | -0.11 |
| CCS(=O)(=O)N1CCc2cc(C(=O)N3CCc4ccccc4C3)ccc21 | i | -1 |
| Cc1[nH]c(=O)[nH]c(=O)c1S(=O)(=O)N1CCCC1 | i | 0.73 |
| CCOc1ccc(CNC(=O)C2(NS(=O)(=O)c3cccc4cccnc34)CCCCC2)cc1 | i | 0.16 |
| O=C1CCCc2cc(S(=O)(=O)N3CCCC3C(=O)NC3CCCCC3)ccc2N1 (stereo not given) | i | 0.27 |
| N#Cc1ccc(-c2nc(-c3ccc4nncn4c3)no2)cc1 | i | -0.23 |
| CCOCCCNC(=O)c1cc2c(s1)CN(C1CC1)C2 | i | -1.3 |
| Cc1cccc(NC(=O)c2sc(N3CCCC3=O)nc2C)n1 | i | -2.4 |
| Cn1c(=O)sc2cc(NC(=O)c3ccccc3)ccc21 | i | -0.87 |
| Cc1cccn2c(=O)cc(COc3ccc(NC(=O)Nc4cccc(Cl)c4)cc3)nc12 | i | -1.2 |
| C#C[C@]1(O)CC[C@H]2[C@@H]3CCC4=CC(=O)CC[C@@H]4[C@H]3CC[C@@]21C | i | 0.67&-0.25 |
| CCOc1cccc(-c2nc(C(N)=O)c3[nH]c(=O)n(CC4CCCO4)c3n2)c1O (stereo not given) | i | 0.94 |
| CCn1c(=O)c2c(C(=O)NC3CC3)cc(=O)n(CC)c2n(C)c1=O | i | -0.04 |
| Cc1ccc(-c2noc3c(=O)n(CCC(=O)Nc4cc(Cl)ccc4C)cnc23)cc1 | i | 1.1 |
| NCCc1ccn[nH]1 | i | 0.59 |
| CS(=O)(=O)c1ccc([C@@H](O)[C@@H](COC(=O)CN)NC(=O)C(Cl)Cl)cc1 | i | -0.7 |
| O=C(Cn1c2ccccc2n2c(=O)cc(-c3ccccc3)nc12)Nc1cc(F)ccc1F | i | -0.63 |
| OCCNc1ncnc2onc(-c3ccc(F)cc3)c12 | i | 0.18 |
| Cc1cc2nc(CSc3nnc(NC(=O)Nc4ccc(F)c(Cl)c4)s3)cc(=O)n2o1 | i | -0.25 |
| Cc1ccc(Cc2nnc(-c3cc(NC(=O)Nc4ccc5c(c4)OCCO5)ccc3F)o2)cc1 | i | 1.1 |
| Cc1cccc(N2CCN(C(=O)CN3C(=O)c4ccccc4C3=O)CC2)n1 | i | -1.7 |
| CC(C)CCn1c(=O)c2ccccc2n2c(SCc3ccccc3)nnc12 | i | -1.4 |
| CN1C(=O)CCc2cc(NC(=O)c3ccccc3)ccc21 | i | -0.87 |
| O=C(Cn1nc(C(=O)Nc2ccccc2)ccc1=O)Nc1ccccc1Cl | i | -1.2 |
| CC(=O)NCCC1CCN(C(=O)c2ccc(C)cc2)CC1 | i | 0.47 |
| O=C(Nc1ccccc1)Nc1cccc(-c2noc(-c3ccc4c(c3)OCO4)n2)c1 | i | -0.07 |
| CC1CCCN(S(=O)(=O)c2ccc(-c3nc(C#N)c(N(C)C)o3)cc2)C1 (stereo not given) | i | -0.1 |
| O=C(COc1ccc(Br)cc1)NCC(c1cccs1)N1CCCC1 (stereo not given) | i | 0.33 |
| CC1CCC(NC(=O)C2c3cccn3CC(=O)N2c2ccc(Cl)cc2)CC1 (stereo not given) | i | 0.24 |
| O=C(CCc1ccccc1)N1CCC(N2CCN(Cc3ccccc3)C(=O)C2=O)CC1 | i | -0.38 |
| Cc1ccc(S(=O)(=O)NCCc2sc(-c3ccc(Cl)cc3)nc2C)cc1 | i | 1.8 |
| CC1(C(=O)NC2CCCC2)CN(S(C)(=O)=O)CC(=O)N1c1ccc(F)cc1 (stereo not given) | i | -1 |
| COc1cccc(NC(=O)Cc2ccc(NC(=O)N3CCCCc4ccccc43)cc2)c1 | i | -0.21 |
| Cc1cc(C)c2c(-n3cccc3)c(C(=O)N3CCN(c4ccccc4)CC3)sc2n1 | i | -0.49 |
| O=C(Nc1ccc(Cl)cc1)c1cnn(-c2ccccc2)c1 | i | 1.3 |
| CNS(=O)(=O)c1cn(CC(=O)NCCc2ccc(Cl)cc2)cc1S(=O)(=O)NC | i | -0.04 |
| O=C(CC1CCCC1)N1CCC2(CC1)Nc1ccc(Cl)cc1-n1cccc12 | i | 0.23 |
| Cc1cc(-n2c(C)nc3ccccc3c2=O)ccc1NC(=O)c1cc(F)cc(F)c1 | i | -0.25 |
| C=C(C)Cn1c(C2CCCN2C(=O)CC)nc2ccccc21 (stereo not given) | i | -0.34 |
| Cc1ccc(NC(=O)CSc2nnc(CCN3CCOCC3)o2)cc1 | i | -0.93 |
| O=C(NC1CCCCC1)N1CCc2cc(S(=O)(=O)N3CCc4ccccc4C3)ccc21 | i | -0.36 |
| O=C(NC1CCCc2ccccc21)C1CCN(c2ccnc(-c3cccc(F)c3)n2)CC1 (stereo not given) | i | 1.1 |
| Cc1ccc(C)c(NC(=O)N2CCCC2c2ccc(Cl)cc2)c1 (stereo not given) | i | -0.45 |
| Cc1cccc(Cn2cc(C(=O)Nc3cc(F)ccc3F)ccc2=O)c1 | i | -0.3 |
| O=C(Nc1ccc2nc(SCCOc3ccccc3)sc2c1)c1ccccc1F | i | 1.8 |
| O=C(CSc1nc(=O)n(Cc2ccncc2)c2c1CCC2)NCC1CCCO1 (stereo not given) | i | -0.16 |
| Clc1ccc(C(Cn2ccnc2)OCc2ccsc2Cl)c(Cl)c1 (stereo not given) | i | -0.25&-0.17 |
| CC1(C)CC(=O)c2cc(C(=O)Nc3ccc(Cl)cc3)c(=O)[nH]c2C1 | i | 0.46 |

The listing continues:
| SMILES | Choline anaer gr | Choline anaer gr early |
| --- | --- | --- |
| CCCCC(=O)Nc1ccc(Oc2nc3ccccc3n3cnnc23)cc1 | i | 0.42 |
| CC(=O)Nc1cccc(-c2nc(-c3ccc4c(c3)Sc3ccccc3C(=O)N4C3CC3)no2)c1 | i | -0.89 |
| COc1ccc2scc(N3CCc4ccccc4C3)c(=O)c2c1 | i | -0.99 |
| CCc1ccc(-c2ccc(=O)[nH]n2)cc1S(=O)(=O)N(CC)CC | i | -0.22 |
| COc1cccc(NC(=O)N2CCN(C)c3ncccc32)c1 | i | -1.2 |
| COc1ccc(C(=O)N2c3cc(CNC(=O)c4cc(CC(C)C)on4)ccc3CC2C)cc1 (stereo not given) | i | 0.47 |
| Cc1cc(C)c(NC(=O)c2ccc(S(=O)(=O)c3ccc(C)c(C)c3)nc2)c(C)c1 | i | 1 |
| C=CCc1cccc(/C=N/NC(=O)CN2CCN(Cc3ccccc3)CC2)c1O | i | -0.25&-0.79 |
| Cc1nc(-c2ccc(F)cc2)sc1CCNS(C)(=O)=O | i | -0.66 |
| COc1ccccc1NC(=O)c1cc(C)n(-c2ccc(N3CCCC3)nc2)c1C | i | -0.16 |
| Cc1cc(C)cc(NC(=O)Cn2nc(C(=O)Nc3ccccc3)ccc2=O)c1 | i | -0.48 |
| Cc1ccc(Oc2nccn3c(=O)n(CC(=O)Nc4ccc(C(C)C)cc4)nc23)cc1 | i | -0.45 |
| Cc1ccc(-c2noc(-c3cccnc3NC(C)c3ccc(C)cc3)n2)cc1 (stereo not given) | i | 1.4 |
| CCN1C(=O)COc2ccc(-c3noc(C(C)NC(=O)c4ccccc4)n3)cc21 (stereo not given) | i | 0.42 |
| O=C(Cn1cnc2onc(-c3ccc(Cl)cc3)c2c1=O)NCCC1=CCCCC1 | i | 1.4 |
| C=CCNC(=O)c1sc(=S)n2c1[nH]c(=O)c1cc3c(cc12)OCO3 | i | -0.98 |
| CC1CCN(C(=O)c2cc(CN3CCOCC3)on2)CC1 | i | -1.7 |
| Cc1cc(C(=O)N2CCC(c3cc4n(n3)CCCN(C)C4=O)CC2)c(C)o1 | i | -0.95 |
| COc1cccc(C(=O)Nc2cc(C)nn2-c2ncnc3c2cnn3-c2ccccc2)c1OC | i | 0.41 |
| Cc1nn(-c2ccc3nnc(C)n3n2)c2c1C(c1ccc(OCC(C)C)cc1)CC(=O)N2 (stereo not given) | i | -0.76 |

Among those listed so far, these contain an NH in an aromatic ring:
| SMILES | Choline anaer gr | Choline anaer gr early |
| --- | --- | --- |
| CC(C)c1cc(C2CCCN2Cc2cn[nH]c2-c2ccc(F)cc2)no1 (stereo not given) | i | 1.4 |
| CCc1onc(C)c1C1CCCN1Cc1cn[nH]c1-c1ccc(OC)c(OC)c1 (stereo not given) | i | -0.35 |
| Cc1cc(=O)[nH]c(SCc2nc(-c3ccc(OC(C)C)cc3)oc2C)n1 | i | -0.11 |
| Cc1[nH]c(=O)[nH]c(=O)c1S(=O)(=O)N1CCCC1 | i | 0.73 |
| CCOc1cccc(-c2nc(C(N)=O)c3[nH]c(=O)n(CC4CCCO4)c3n2)c1O (stereo not given) | i | 0.94 |
| NCCc1ccn[nH]1 | i | 0.59 |
| CC1(C)CC(=O)c2cc(C(=O)Nc3ccc(Cl)cc3)c(=O)[nH]c2C1 | i | 0.46 |
| CCc1ccc(-c2ccc(=O)[nH]n2)cc1S(=O)(=O)N(CC)CC | i | -0.22 |
| C=CCNC(=O)c1sc(=S)n2c1[nH]c(=O)c1cc3c(cc12)OCO3 | i | -0.98 |

The listing continues:
| SMILES | Choline anaer gr | Choline anaer gr early |
| --- | --- | --- |
| Cc1cccc(NC(=O)CCn2c(C(F)(F)F)nc3cc(S(=O)(=O)N(C)C)ccc32)c1 | i | 1.5 |
| O=c1ccc(N2CCCN(S(=O)(=O)c3cnc[nH]3)CC2)nn1-c1ccccc1 | i | -0.69 |
| COC(=O)c1ccccc1NC(=O)c1ccc(-c2nc(COc3ccc(C)cc3)c(C)o2)cc1 | i | 0.04 |
| CC1CCC(NC(=O)C2(C)Cn3c(cc4sccc43)C(=O)N2CCN2CCOCC2)CC1 (stereo not given) | i | -0.05 |
| CCCN(Cc1ccc(C(C)C)cc1)Cc1cc(=O)n2nc(CC)sc2n1 | i | 0.18 |
| COc1cccc(-n2c(=O)[nH]cc(C(=O)Nc3ccc(S(N)(=O)=O)cc3)c2=O)c1 | i | 0.21 |
| CC(O)Cc1nsc(NC(=O)c2cccc(F)c2)n1 (stereo not given) | i | -1.1 |
| O=c1cc(CNCc2ccccc2)nc2nc(NCc3ccccc3)[nH]n12 | i | -0.5 |
| CCC(C(=O)N(C)Cc1ccccc1)N1CCN(Cc2ccc(F)cc2)C(=O)C1=O (stereo not given) | i | -0.85 |
| CC(C)CCNC(=O)c1cccn(-c2ccc(NC(=O)c3ccccc3Cl)cc2)c1=O | i | -1.3 |
| COc1ccc(OC)c(C2C3=C(CC(C)(C)CC3=O)Nc3onc(C)c32)c1 (stereo not given) | i | -0.34 |
| CCCN(C)S(=O)(=O)c1c(-c2nc(C3CC3)no2)c(C)n(CC)c1C | i | -0.72 |
| COC(=O)c1sc2cccc(Cl)c2c1NC(=O)CS(=O)(=O)c1ccc(Cl)cc1 | i | 0.55 |
| COc1cc(Br)c(S(=O)(=O)Nc2ccc(Cl)c(O[C@@H]3CCN(C)C3)c2)cc1OC | i | 0.02 |
| CCN(Cc1ccccc1)c1ccc(NC(=O)c2ccc(Cl)cc2)cc1C(=O)O | i | 0.76 |
| Cc1nnsc1C(=O)Nc1ccc(-n2nc(C(F)(F)F)cc2C(F)(F)F)cc1 | i | -0.11 |
| Cc1cc(NC(=O)c2cc3ccccc3[nH]2)ccc1-c1nc2ccccc2s1 | i | 0.15 |
| CCn1cc(C(=O)OCc2cccc(C)c2)c(=O)c2ccc(C)nc21 | i | -1 |
| Cc1cc(C)c(N(Cc2ccccc2)S(=O)(=O)c2ccc(OCCNC(=O)c3cc4ccccc4o3)cc2)c(C(=O)NO)c1 | i | 0.55 |
| COc1ccc(-c2cc(OC(=O)c3ccc(C(C)(C)C)cc3)c3c(C)oc(C)c3c(=O)c2)cc1 | i | -1.1 |
| Cc1ccc(NC(=O)c2ccc3nnc(SCC(=O)NCc4ccc(Cl)cc4)n3c2)cc1 | i | 0.6 |
| Cc1ccc(C)c(C2Nc3ccc(C)cc3[C@H]3OCC[C@@H]23)c1 (stereo not given in full) | i | 0.67 |
| COc1ccc(-c2ccc(SCc3nc(-c4ccccc4Br)no3)nn2)cc1OC | i | 0.18 |
| CCN(CC)S(=O)(=O)c1ccc2c(c1)cc(C(=O)N1CCN(Cc3ccccc3)CC1)n2C | i | 0.82 |
| O=C(NCCCc1ccccc1)C1CCCN(c2ncnc3c2oc2ccccc23)C1 (stereo not given) | i | 1.6 |
| O=S(=O)(NCCc1csc2nc(-c3ccccc3F)nn12)c1ccc(F)cc1 | i | 0.7 |
| Cc1csc(NC(=O)CCNS(=O)(=O)c2c(C)[nH]c(C)c2C(=O)N2CCCC2)n1 | i | 0.16 |
| CCc1cc2c(cc3n2CC(C)(C(=O)NC2CCC(C)CC2)N(CCCOC(C)C)C3=O)s1 (stereo not given) | i | 0.05 |
| COc1ccc2cc3c(nc2c1)N(S(=O)(=O)c1ccc(F)c(C)c1)CC3 | i | -0.14 |

Source: PubChem BioAssay (ICCB-Longwood Screening Facility, Harvard Medical School)
